PABP FP inh = blocks human PABP binding to poly(A) RNA. P11940. fluorescence polarization. inhibition, % at 35 µM. 290,000 compounds, 1% hits. AID 2014;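 active = 50% or more with normal probe brightness, or confirmed in later tests; inconclusive = above 50% with abnormal brightness, or retests that disagree; inactive = below 50% or failed in later tests; about a fifth of its hits are not listed in these tables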;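 also: calls also rest on retests at 20 µM and on dose response follow-up; controls were probe without protein and protein plus probe with vehicle; some compounds called inactive have numbers as strong as hits; many hits fall short of the cut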
Target sequence (P11940 whole entry, looked up): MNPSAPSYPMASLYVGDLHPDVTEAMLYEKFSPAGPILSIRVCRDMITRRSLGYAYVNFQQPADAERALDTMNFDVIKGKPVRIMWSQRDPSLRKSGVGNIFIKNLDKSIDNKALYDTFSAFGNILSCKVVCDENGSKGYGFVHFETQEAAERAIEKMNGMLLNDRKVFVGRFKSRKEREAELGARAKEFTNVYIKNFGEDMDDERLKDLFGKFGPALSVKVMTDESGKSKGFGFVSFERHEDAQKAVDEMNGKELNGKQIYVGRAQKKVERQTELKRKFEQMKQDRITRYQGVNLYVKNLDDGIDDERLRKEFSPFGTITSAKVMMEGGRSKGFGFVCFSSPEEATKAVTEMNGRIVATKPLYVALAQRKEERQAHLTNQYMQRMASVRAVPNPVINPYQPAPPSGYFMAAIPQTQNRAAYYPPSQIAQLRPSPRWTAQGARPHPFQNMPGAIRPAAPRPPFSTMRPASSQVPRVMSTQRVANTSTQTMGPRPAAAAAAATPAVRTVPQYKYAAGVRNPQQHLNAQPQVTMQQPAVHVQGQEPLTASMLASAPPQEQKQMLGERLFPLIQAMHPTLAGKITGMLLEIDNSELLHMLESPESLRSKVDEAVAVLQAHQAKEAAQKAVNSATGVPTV
Rce1 inh = blocks yeast Ras-converting enzyme; yeast membranes, quenched prenylated peptide cleavage fluorescence; calls only; 290,000 compounds, 0.27% hits; AID 2563;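 active = fall in fluorescence gain of 50% or more versus controls, with final raw signal at or below 3038400; inconclusive = same 50% fall but final raw signal above 3038400; inactive = fall in fluorescence gain under 50%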;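 also: plate controls were neutral control wells for no effect and wells lacking membranes for full effect; tested at 10 µM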
Target sequence (Q03530 whole entry, looked up): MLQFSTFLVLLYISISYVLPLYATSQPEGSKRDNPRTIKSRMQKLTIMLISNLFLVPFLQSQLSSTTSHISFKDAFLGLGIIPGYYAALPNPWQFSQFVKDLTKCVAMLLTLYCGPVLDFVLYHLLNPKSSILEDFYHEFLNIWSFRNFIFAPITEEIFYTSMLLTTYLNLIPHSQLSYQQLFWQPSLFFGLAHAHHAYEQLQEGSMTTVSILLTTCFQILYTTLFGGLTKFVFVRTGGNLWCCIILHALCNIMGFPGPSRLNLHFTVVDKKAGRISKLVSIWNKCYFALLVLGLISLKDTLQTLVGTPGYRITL
eIF4H FP inh = inhibitors of RNA binding by human eIF4H; Q15056; inhibition, % at 35 µM; eIF4H fluorescence polarization binding assay; 290,000 compounds, 0.94% hits;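 active = 50% or more with normal probe brightness, or confirmed in later tests; inconclusive = above 50% with abnormal brightness, or retests that disagree; inactive = below 50% or failed in later tests; about a fifth of its hits are not listed in these tables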;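 also: calls also rest on retests at 20 µM and on dose response follow-up; 0% = protein and probe with vehicle and 100% = probe without protein; strong numbers were not always called active; many hits fall short of the cut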
CSC inhib = cancer stem cell inhibition | inhibition, % at 7.5 µM | cancer stem cell-like cells viability, luminescence | 300,000 compounds, 1.1% hits;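 active = mean at 75% or more and at least half the replicates too; inconclusive = mean and replicates disagree; tested in HMLE shEcad cells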;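 also: 0% = median of negative and 100% = median of positive control wells; the first replicate is given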
MT1-MMP act inh = MT1-MMP (human) activation inhibition; 360,000 compounds, 0.061% hits; P50281; HT1080 RFP-PRO-GFP cells, GFP/RFP ratio fluorescence, overnight; percent of plate control window, DMSO zero; GFP/RFP ratio change, % at 20 µM;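 active = GFP/RFP ratio change of at least 30% with cell ATP level not reduced by more than half and red fluorescence within 50% of control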; also: strong numbers were not always called active
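Assay system – RFP-PRO-GFP reporter HT1080 cells · Compound dosing – single dose of 20 µM compound, 1% DMSO final · Incubation – overnight compound exposure at 37 °C · Measure – GFP/RFP fluorescence ratio · Benchmarks – DMSO wells and RFP-L50D-GFP cells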
Yeast UUG start = modulators of start codon recognition fidelity in yeast; S. cerevisiae UUG-firefly luciferase reporter, luminescence/redox ratio; activity score, % at 18.7 µM; 350,000 compounds, 0.13% hits; AID 602363;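 active = replicate mean at a twofold rise or more, about +100% in these data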;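 also: firefly luciferase made from a UUG start codon reports start codon fidelity; reporter light over untreated wells divided by growth signal over untreated wells; some hits fall short of that in this replicate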
Env fusion inh = inhibitors of HIV Env-mediated cell fusion | HeLa-JRFL Env/CEM21 cell fusion, luciferase | inhibition, % at 12.3 µM | 360,000 compounds, 1.1% hits;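 active = mean replicate inhibition score of at least 50 and every replicate individually at or above 50; inconclusive = only one of the two criteria met; inactive = mean below 50 and not all replicates reaching 50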;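 also: 0% = plate neutral controls and 100% = maraviroc near 300 nM; one replicate is shown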
eIF4H FP inh retest = also measured in eIF4H FP inh; calls as there; inhibition, %; compound at 20 µM; confirmation average;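 mean of two retest wells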
PABP FP inh retest = second read-out of PABP FP inh, no call of its own (marks repeat the call); inhibition, %; compound at 20 µM; confirmation repeats;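 mean of two retest wells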
MT1-MMP act inh RFP = recorded beside MT1-MMP act inh, whose call it bears; RFP signal change, %; measured here: RFP expression control read;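 0 = vehicle wells; hits needed this value within 50% of zero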
* marks the source's active call; other numbers are inactive results; i = inactive; ? = inconclusive; · = no result given.

SMILES	PABP FP inh	Rce1 inh	eIF4H FP inh	CSC inhib	MT1-MMP act inh	MT1-MMP act inh RFP	Yeast UUG start	Env fusion inh	others
CCOC(=O)c1c(NC(=O)Cn2nc(C(=O)O)c3ccccc3c2=O)sc2c1CCC(C)C2 (stereo unspecified)	-1	i	-4	29	3	3	·	12
CC1(CCc2ccc(O)cc2)NC(=O)NC1=O (stereo unspecified)	-1	i	-2	-13	2	-1	-6	·
COc1cc(C(=O)COC(=O)c2cc([N+](=O)[O-])ccc2N2CCOCC2)ccc1OC(F)F	·	·	·	-6	-2	-4	-4	15
CCOc1ccc(/C=C(\C#N)C(=O)Nc2cccnc2)cc1	3	i	7	20	-1	1	2	3
CC(C)C(=O)Nc1ccccc1N1CCN(C(=O)c2ccccc2)CC1	2	i	2	-5	-1	2	-9	·
CCOC(=O)C1CCN(C(=S)Nc2ccc(S(N)(=O)=O)cc2)CC1	32	i	3	-13	-1	-3	·	14
COc1ccc(Br)cc1C1=CC(=O)C[C@H](c2ccc(F)cc2)C1	·	·	·	·	3	-5	-8	-7
COC(=O)C1(CO)NC(c2cccs2)C2C(=O)N(c3ccccc3)C(=O)C21 (stereo unspecified)	21	i	9	6	-5	6	-14	-74
CC(C)Cc1ccc(-c2cc3nc(NCCOc4ccccc4)ccn3n2)cc1	·	·	·	·	-1	-6	-10	-10
COc1cc(C(=O)NC2(C(F)(F)F)NC(=O)N(CCCc3ccccc3)C2=O)cc(OC)c1OC (stereo unspecified)	-8	i	8	-8	6	-4	12	11
Cc1ccc(CN2CCNC(=O)C2CC(=O)N(C)C(C2CC2)C2CC2)o1 (stereo unspecified)	1	i	-3	1	-1	2	·	8
COc1ccc(S(=O)(=O)NC2CCCC2)cc1Cl	15	i	9	-2	-3	1	-16	-6
Cc1ccc(C)c(OCCCNC2CCCC2)c1C	-13	i	11	-4	3	-6	-2	0
O=C(N/N=C/c1ccco1)/C(=C/c1cccc([N+](=O)[O-])c1)NC(=O)c1ccccc1	0	i	-4	29	1	-4	·	18
CCOC(=O)C1=C(N)Oc2c(oc(CO)cc2=O)C1c1ccccc1 (stereo unspecified)	0	i	-10	-3	1	6	·	16
O=S(=O)(NCC1CCCO1)c1ccccc1F (stereo unspecified)	7	i	-7	-7	3	7	-19	0
NC(=O)Cn1cc(C(=O)COc2ccccc2)c2ccccc21	?	i	?	-7	·	·	·	-14
O=C1CC2CS(=O)(=O)CC2N1c1ccc(Oc2ccccc2)cc1 (stereo unspecified)	4	i	2	-9	-1	1	-7	-11
COc1ccc(Oc2cccc(Cl)c2CNC(=O)CCC(=O)O)cc1	12	i	10	4	3	1	·	8
O=C1CC(c2ccc(Cl)cc2)Oc2ccc(Cl)cc21 (stereo unspecified)	·	·	·	·	3	-7	-11	-68

Retrieved by compound from above (5):
SMILES	PABP FP inh	Rce1 inh	eIF4H FP inh	CSC inhib	MT1-MMP act inh	MT1-MMP act inh RFP	Yeast UUG start	Env fusion inh	others
CC1(CCc2ccc(O)cc2)NC(=O)NC1=O (stereo unspecified)	-1	i	-2	-13	2	-1	-6	·
COc1ccc(Br)cc1C1=CC(=O)C[C@H](c2ccc(F)cc2)C1	·	·	·	·	3	-5	-8	-7
CC(C)Cc1ccc(-c2cc3nc(NCCOc4ccccc4)ccn3n2)cc1	·	·	·	·	-1	-6	-10	-10
CC(C)C(=O)Nc1ccccc1N1CCN(C(=O)c2ccccc2)CC1	2	i	2	-5	-1	2	-9	·
CCOc1ccc(/C=C(\C#N)C(=O)Nc2cccnc2)cc1	3	i	7	20	-1	1	2	3

Among those listed so far, these have four or more nitrogen atoms:
SMILES	PABP FP inh	Rce1 inh	eIF4H FP inh	CSC inhib	MT1-MMP act inh	MT1-MMP act inh RFP	Yeast UUG start	Env fusion inh	others
CC(C)Cc1ccc(-c2cc3nc(NCCOc4ccccc4)ccn3n2)cc1	·	·	·	·	-1	-6	-10	-10
O=C(N/N=C/c1ccco1)/C(=C/c1cccc([N+](=O)[O-])c1)NC(=O)c1ccccc1	0	i	-4	29	1	-4	·	18

Remaining list, next part:
SMILES	PABP FP inh	Rce1 inh	eIF4H FP inh	CSC inhib	MT1-MMP act inh	MT1-MMP act inh RFP	Yeast UUG start	Env fusion inh	others
CCOc1ccccc1NC(=O)C1C2CCC(O2)C1C(=O)O (stereo unspecified)	6	i	0	-1	3	5	1	-87
Cc1ccc(CN2CCN(Cc3ccc(C)s3)CC2CCO)cc1 (stereo unspecified)	4	i	1	-5	15	5	7	6
CCOC(=O)C1=C(C)N=C2SC(C)C(=O)N2C1c1ccc(OCC)c(OCC)c1 (stereo unspecified)	-2	i	2	-7	-28	-16	-4	·
CCCNC(=O)C[C@H]1CC[C@@H]2[C@H](COC[C@@H](O)CN2C(=O)c2ccccn2)O1	·	·	·	·	0	5	-7	-7
CN(C)C=NC(=O)c1cc(C(=O)c2ccccc2Cl)c[nH]1	7	i	-6	-22	6	3	·	6
CN(C)/C=C(\C#N)C(=O)Nc1ccc(F)cc1	-2	i	-13	-4	6	7	-22	·
COc1cccc(-n2c(Cc3cc(=O)[nH]c(=O)[nH]3)nnc2SCC(=O)N2CCCCC2)c1	54	i	-8	2	0	7	-10	6	eIF4H FP inh retest=-8;PABP FP inh retest=4
O=C(c1ccc(F)cc1)C1CCN(Cc2cn[nH]c2-c2ccc(F)cc2)CC1	-7	i	-5	9	-2	-1	-6	7
Cc1ccc(-n2c(SCC(N)=O)nnc2-c2cccnc2)c(C)c1	1	i	1	·	1	1	-3	1
Cc1ccc(NC(=O)CN2CCC(NC(=O)Cc3ccccc3)CC2)c(C)c1	6	·	1	·	3	3	-11	23
COC(=O)c1ccc(NCCc2csc(-c3ccc(C)cc3)n2)c([N+](=O)[O-])c1	-7	i	-9	-9	4	-3	-8	-56
CC(C)C(NC(=O)Nc1ccccc1)C(=O)Nc1cccc(S(=O)(=O)N(C)C)c1 (stereo unspecified)	6	·	-13	-7	1	0	-28	-15
Cc1ccccc1S(=O)(=O)NC(=O)C1(C)CCN1C(=O)CCc1ccccc1 (stereo unspecified)	·	·	·	·	1	7	-10	-4
Cc1ccccc1-n1c(C)n[nH]c1=S	2	i	0	-13	4	5	-4	·
CCCCc1nn(-c2cc(Cl)ccc2OC)c2c1C(=O)CCC2	0	i	1	-7	-1	-4	0	27
O=c1ccc(Oc2nc(N3CCOCC3)nc(N3CCOCC3)n2)nn1-c1ccccc1	0	i	0	9	-1	-1	-4	-42
O=S(=O)(c1ccccc1)c1nc(-c2ccco2)oc1NCc1cccnc1	12	i	0	-3	-2	2	-5	·
COc1ccc(C[C@H]2CN3C(=NC[C@H]3C)N2CCNC(=O)CCC2CCCCC2)cc1	-4	i	-13	-2	-2	-2	-25	16
CC(=O)Nc1ccc(CN2CCC2(C)C(=O)NC2CCN(Cc3ccccc3)CC2)cc1 (stereo unspecified)	·	·	·	·	5	4	-11	0
COc1ccc(-c2c(C)[nH]n3c(=O)c(Cc4ccccc4)c(C)nc23)cc1	48	i	11	27	16	-5	·	11
C=C(C)c1cccc(C(C)(C)NC(=O)N2CCN(C/C=C/c3ccccc3)CC2)c1	-1	i	4	1	-7	-7	-6	·
COc1ccc2[nH]c(=O)c(CN(Cc3nnnn3Cc3ccc(F)cc3)CC3CCCO3)cc2c1 (stereo unspecified)	-10	i	-3	6	1	4	·	·
Cc1ccc(C)c(N(CC(=O)NCc2ccco2)C(=O)CCC(=O)Nc2ccccn2)c1	4	i	-1	·	-3	3	27	·
CC(=O)c1c(C)[nH]c(C(=O)OCC(=O)N2CC(C)OC(C)C2)c1C (stereo unspecified)	·	i	·	-1	5	0	·	-4
Oc1cc(Cl)cc(Cl)c1Cl	·	·	·	-7	-3	3	-18	·
CCc1ccccc1NC(=O)COC(=O)c1c(C)nsc1NC	·	·	·	1	8	-27	2	·
O=C(NCc1ccc(F)cc1)C(c1cccnc1)N(C(=O)c1csnn1)c1ccccc1 (stereo unspecified)	5	i	0	2	0	4	-4	-16
CC(C)(C)OC(=O)N1CCC(c2c(C(=O)O)cnn2-c2ccc(Cl)cc2)CC1	-14	i	-11	10	0	2	-32	-24
CCCSc1nnc(-c2ccccc2N)c(=O)[nH]1	6	i	1	1	5	-4	-5	-113
O=C(O)C1C2C=CC(C2)C1C(=O)NCCc1cccc(Cl)c1 (stereo unspecified)	13	i	4	-14	3	5	-6	·

Molecules shown so far that contain a nitro group on carbon, in the order listed:
SMILES	PABP FP inh	Rce1 inh	eIF4H FP inh	CSC inhib	MT1-MMP act inh	MT1-MMP act inh RFP	Yeast UUG start	Env fusion inh	others
COc1cc(C(=O)COC(=O)c2cc([N+](=O)[O-])ccc2N2CCOCC2)ccc1OC(F)F	·	·	·	-6	-2	-4	-4	15
O=C(N/N=C/c1ccco1)/C(=C/c1cccc([N+](=O)[O-])c1)NC(=O)c1ccccc1	0	i	-4	29	1	-4	·	18
COC(=O)c1ccc(NCCc2csc(-c3ccc(C)cc3)n2)c([N+](=O)[O-])c1	-7	i	-9	-9	4	-3	-8	-56

Other records
SMILES	PABP FP inh	Rce1 inh	eIF4H FP inh	CSC inhib	MT1-MMP act inh	MT1-MMP act inh RFP	Yeast UUG start	Env fusion inh	others
CCN(CC)c1ccc(C=Nc2cccc(S(=O)(=O)N3CCOCC3)c2)c(O)c1	·	·	·	-10	3	2	6	-21
CCCCCC(=O)Nc1cccc(C2=NOC3(C2)C[C@@H](C(N)=O)N(C(=O)c2cc([N+](=O)[O-])cc([N+](=O)[O-])c2C)C3)c1 (stereo partly specified)	1	i	-2	-9	-6	2	-12	10
CCCCOC(=O)CCCN1C(=O)/C(=C2\SC(=S)N(CCCC(=O)OCCCC)C2=O)SC1=S	2	i	-10	-12	17	60	-18	-2
CC(C)n1cc(CN2CCN(C)C(CCO)C2)c2ccccc21 (stereo unspecified)	-2	i	-5	8	1	7	-7	-5
CCOc1ccc(-c2nnc(-c3ccncc3)o2)cc1	-1	i	-3	0	-6	-4	-27	-206
O=C1CN(C(=O)NCC(=O)N[C@H](C(=O)O)c2ccccc2)c2ccccc2N1	4	i	2	4	-2	2	-5	4
COC(=O)C1CCN(CC(=O)NC(=O)NC2CCCCC2)CC1	15	i	8	-9	-1	2	-4	22
O=C(Nc1ccccc1N1CCOCC1)c1cccc2ccccc12	·	·	·	·	-2	-4	-8	14
Cc1cccc(Nc2nnc(SCC(=O)c3ccc(Br)s3)s2)c1C	5	i	0	13	2	1	·	·
C=CC[C@@H](CC(=O)N[C@H](CO)Cc1ccccc1)C(=O)N[C@H](COC(=O)[C@@H](CC=C)Cc1ccc(F)cc1)Cc1c[nH]c2ccccc12	·	·	·	-2	-8	-21	6	-59
O=C(/C=C/c1ccccc1[N+](=O)[O-])NCCCN1CCCC1=O	29	i	10	-9	4	4	-6	-1
O=C(CCCc1ccccc1)NC1CC1	0	i	-2	3	0	2	·	-19
Cc1ccc(NC(=O)C2CC(=O)NC(Nc3cccc(C)c3)=N2)cc1 (stereo unspecified)	-3	i	3	-11	3	5	-8	·
CCN1CCN(S(=O)(=O)c2ccc(S(=O)(=O)NCC3CCCO3)cc2)CC1 (stereo unspecified)	-3	i	-3	-6	3	0	-1	·
Cc1ccccc1NC(=O)c1ccc(C)c(S(=O)(=O)Nc2ccccn2)c1	-6	i	-4	2	0	0	-36	·
COC(=O)c1ccc(NC(=S)NCCc2cccc(C)c2)cc1	-1	i	-5	·	6	-9	-26	-23

High-throughput results (PubChem)
